Bioassay records deposited in PubChem BioAssay by several laboratories.
Arbovirus anti: arbovirus infection inhibition. arbovirus infection cell-based antiviral screen. inhibition, % at 10 µM. 200,000 tested, 0.37% active;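 active means inhibition from about 30%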;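 further: bluetongue infection of BSR cells; cell survival read as ATP light after 72 h; 0% = infected wells without compound and 100% = uninfected wells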
RecA splice inh: inhibitors of M. tuberculosis RecA intein splicing; 290,000 tested, 0.75% active; inhibition, %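 (about 9 µM by stock and volumes)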; cell-free RecA intein splicing, fluorescence; P9WHJ3; in the data active means inhibition above about 30%;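 further: 0% = vehicle wells and 100% = reference inhibitor control wells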
Target sequence (P9WHJ3 whole entry, looked up, canonical isoform): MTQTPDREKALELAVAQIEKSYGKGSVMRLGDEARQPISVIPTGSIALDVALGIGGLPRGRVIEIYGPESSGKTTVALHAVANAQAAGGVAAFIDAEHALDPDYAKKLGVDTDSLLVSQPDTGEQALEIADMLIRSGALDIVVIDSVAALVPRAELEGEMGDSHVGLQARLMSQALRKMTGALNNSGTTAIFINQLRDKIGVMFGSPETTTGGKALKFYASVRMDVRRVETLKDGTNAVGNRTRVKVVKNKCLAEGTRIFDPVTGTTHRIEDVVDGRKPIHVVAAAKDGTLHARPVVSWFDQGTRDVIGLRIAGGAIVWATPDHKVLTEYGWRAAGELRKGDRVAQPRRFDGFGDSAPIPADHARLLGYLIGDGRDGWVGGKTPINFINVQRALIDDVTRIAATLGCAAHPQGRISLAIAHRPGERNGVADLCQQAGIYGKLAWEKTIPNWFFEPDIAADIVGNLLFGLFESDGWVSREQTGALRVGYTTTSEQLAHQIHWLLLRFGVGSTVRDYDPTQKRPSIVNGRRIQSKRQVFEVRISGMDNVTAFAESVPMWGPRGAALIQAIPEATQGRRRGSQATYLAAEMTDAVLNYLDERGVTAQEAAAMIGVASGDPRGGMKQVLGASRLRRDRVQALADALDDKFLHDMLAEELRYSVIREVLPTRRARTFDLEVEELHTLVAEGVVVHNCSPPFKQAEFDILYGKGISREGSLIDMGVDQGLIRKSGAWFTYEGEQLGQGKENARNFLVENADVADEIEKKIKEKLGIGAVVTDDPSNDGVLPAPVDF
YopH PTP inh: blocks Yersinia enterocolitica YopH tyrosine phosphatase; 140,000 tested, 0.16% active; fluorescence Ex485/Em525; inhibition, %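 (about 10 µM by stock and volumes)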;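 active means inhibition of 50% or more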;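 further: controls were vehicle for no effect and minimum signal wells for full effect; inactives centre near -20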
Mtb H37Rv: M. tuberculosis H37Rv growth inhibitors, H37Rv strain (AID 1626). M. tuberculosis H37Rv growth inhibition; higher % means a stronger effect. one-dose inhibition, % at 10 µM; IC50 in µM for titrated hits. 220,000 tested, 0.95% active;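 active means confirmed in a dose series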;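 further: bacteria incubated seven days before Alamar blue readout; 0% = bacteria only wells and 100% = bacteria with antibiotic wells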
Mtb betalactam: beta-lactam sensitization of Mtb H37Rv. M. tuberculosis H37Rv growth with meropenem, percent inhibition; hits of this screen are not shown here. inhibition, % at 25 µM. 330,000 tested, 0.27% active;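 active means about 74% or more and at least 40 points above the plate without the antibiotic, then above 30% in a dose series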;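 further: growth measured after seven days incubation then overnight dye step; 0% = bacteria only wells and 100% = bacteria with antibiotic; twin plates without the antibiotic show which effects depend on it; some results filed as inactive read as strong as hits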
Arbovirus anti repeat: second read-out of Arbovirus anti, no call of its own (marks repeat the call); inhibition, %; measured here: 10K subset replicate screen; many hits read low in the repeat;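 first of two repeat runs on a subset; 0% = infected and 100% = uninfected wells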
The depositor's hits bear a star; / = not tested or not shown. Not all compounds are listed, so the mix of outcomes need not match the whole.

SMILES	Arbovirus anti	RecA splice inh	YopH PTP inh	Mtb H37Rv	Mtb betalactam	others
Cc1cc(=O)oc2cc(OCC(=O)Nc3ccc(CN4CCOCC4)cc3)c(Cl)cc12	/	0.8	/	/	1.2
O=C(Nc1nc2nccc(-c3ccccc3)n2n1)C(Cl)(Cl)Cl	-6.5	1.3	-28.1	-0.5%	-0.5
Cc1ccc(C(=O)N/N=C2/NC(=O)CC(C(=O)Nc3ccccc3)S2)cc1 (stereo unspecified)	5.2	3.4	-11.0	5.5%	-0.1
COc1cc(-c2nnn(CC#N)n2)ccc1OCc1ccccc1	-8.9	14.6	-39.9	6.3%	16.0	Arbovirus anti repeat=2.8
COCC1CCCCN1C(=O)c1cc(COc2ccc3ncccc3c2)on1 (stereo unspecified)	/	0.3	/	/	-6.1
Cc1ccc(NC(=O)C2(NC(=O)c3cccc(N4C(=O)CSC4c4ccccc4)c3)CCCCC2)cc1 (stereo unspecified)	-25.2	-0.8	-23.3	-6.6%	-0.2
COc1ccccc1NS(=O)(=O)c1ccc(-c2cc(C)no2)s1	/	-2.3	/	/	-3.8
CC(=O)Nc1ccc(NC(=O)C2CCCCC2C(=O)O)cc1 (stereo unspecified)	4.3	0.3	-32.3	-4.6%	-2.4
C=CCNC(=S)N1CCC(C(=O)c2ccc(F)cc2)CC1	/	0.3	/	/	-4.2
O=c1ccc(Cl)n[nH]1	/	-0.3	/	-7.4%	-3.6
Cc1ccc2c(c1)CC1(CN2C)C(=O)NC(=O)N(c2cccc(C)c2C)C1=O (stereo unspecified)	2.5	5.5	-49.0	-9.7%	-4.8
COc1ccc(-c2oc3ncnc(NCCCN(C)C)c3c2-c2ccc(OC)cc2)cc1	/	-3.8	/	/	63.2
CC(C)c1ccc(N(CC(=O)Nc2ccc(S(=O)(=O)N3CCOCC3)cc2)S(C)(=O)=O)cc1	-10.7	/	-4.0	-1.6%	-4.3
Cc1cccc(OCC(=O)Nc2cc(NC(=O)COc3cccc(C)c3)cc(C(=O)O)c2)c1	/	-5.9	/	/	11.3
Cc1ccc2nc(NS(=O)(=O)c3cn(C)nc3C)sc2c1	/	0.7	/	/	-9.9

Next section, starting with the last five of the part before.
SMILES	Arbovirus anti	RecA splice inh	YopH PTP inh	Mtb H37Rv	Mtb betalactam	others
Cc1ccc2c(c1)CC1(CN2C)C(=O)NC(=O)N(c2cccc(C)c2C)C1=O (stereo unspecified)	2.5	5.5	-49.0	-9.7%	-4.8
COc1ccc(-c2oc3ncnc(NCCCN(C)C)c3c2-c2ccc(OC)cc2)cc1	/	-3.8	/	/	63.2
CC(C)c1ccc(N(CC(=O)Nc2ccc(S(=O)(=O)N3CCOCC3)cc2)S(C)(=O)=O)cc1	-10.7	/	-4.0	-1.6%	-4.3
Cc1cccc(OCC(=O)Nc2cc(NC(=O)COc3cccc(C)c3)cc(C(=O)O)c2)c1	/	-5.9	/	/	11.3
Cc1ccc2nc(NS(=O)(=O)c3cn(C)nc3C)sc2c1	/	0.7	/	/	-9.9
COc1ccccc1C(=O)NCC(=O)N/N=C/c1ccncc1	3.0	1.3	/	-3.6%	6.0
CCO/N=C/C(=O)Nc1ccc(F)cc1F	2.4	-1.9	/	4.8%	-6.2
C=CCCCCCCCC(=O)OC	-0.2	0.3	/	-15.6%	-4.9
COc1ccc(/C=C/C(=O)OCC(=O)Nc2cc(S(=O)(=O)N(C)C)ccc2Cl)cc1	5.7	-0.7	/	2.9%	-4.3
COc1ccc(/C=C/C(=O)OCC(=O)Nc2cc(C(F)(F)F)ccc2Cl)cc1	1.6	-0.2	-19.6	14.9%	-0.7
NC(=O)[C@@H]1CCCCNc2c(F)cc([N+](=O)[O-])cc2C(=O)N[C@@H](CC(=O)O)C(=O)N[C@@H](CCC(=O)O)C(=O)N1	-4.2	1.1	-25.3	-0.2%	1.5
COc1ccccc1NC(=S)N(Cc1ccccc1)Cc1cccs1	5.2	9.7	/	13.6%	-7.0
CCN(CC)S(=O)(=O)c1cc(C(=O)N2CCc3ccccc32)ccc1Cl	-2.5	/	-4.1	/	-2.3
CCn1c(CSc2nnc(C)n2-c2ccccc2)nc2cc(S(=O)(=O)N(C)C)ccc21	-2.3	-1.2	-50.2	-5.6%	-7.6
C/C(CCc1ccc2c(c1)OCO2)=N\NC(=O)c1ccccc1Cl	-1.2	-2.2	-30.4	2.6%	-11.9
Fc1ccccc1OCCCCCCN1CCCC1	17.7	2.5	-25.3	-1.0%	0.0
COc1cccc(C2Nc3cccc4cccc(c34)N2)c1	/	2.7	/	4.9%	2.8
O=C(Nc1cccc(-c2csc(Nc3ccc(Cl)cc3)n2)c1)c1cccc(C(F)(F)F)c1	/	2.0	/	76.0%	65.7
Cc1sc2nc(C3CC3)nc(SCC(=O)NCc3ccco3)c2c1C	-1.3	3.9	-0.1	-5.6%	2.6
Cc1[nH]n(C(N)=S)c(=O)c1C(c1ccccc1)C(C#N)C#N (stereo unspecified)	1.8	43.2*	-22.5	-1.0%	-7.4

Five structures already listed, ordered by length of the SMILES, falling:
SMILES	Arbovirus anti	RecA splice inh	YopH PTP inh	Mtb H37Rv	Mtb betalactam	others
O=C(Nc1cccc(-c2csc(Nc3ccc(Cl)cc3)n2)c1)c1cccc(C(F)(F)F)c1	/	2.0	/	76.0%	65.7
COc1ccc(/C=C/C(=O)OCC(=O)Nc2cc(S(=O)(=O)N(C)C)ccc2Cl)cc1	5.7	-0.7	/	2.9%	-4.3
CCn1c(CSc2nnc(C)n2-c2ccccc2)nc2cc(S(=O)(=O)N(C)C)ccc21	-2.3	-1.2	-50.2	-5.6%	-7.6
CCO/N=C/C(=O)Nc1ccc(F)cc1F	2.4	-1.9	/	4.8%	-6.2
Fc1ccccc1OCCCCCCN1CCCC1	17.7	2.5	-25.3	-1.0%	0.0

The listing picks up; the two compounds before the break are reprinted first.
SMILES	Arbovirus anti	RecA splice inh	YopH PTP inh	Mtb H37Rv	Mtb betalactam	others
Cc1sc2nc(C3CC3)nc(SCC(=O)NCc3ccco3)c2c1C	-1.3	3.9	-0.1	-5.6%	2.6
Cc1[nH]n(C(N)=S)c(=O)c1C(c1ccccc1)C(C#N)C#N (stereo unspecified)	1.8	43.2*	-22.5	-1.0%	-7.4
CCS(=O)(=O)NC(C)C(c1cccs1)N1CCN(C)CC1 (stereo unspecified)	2.3	-0.2	-46.2	-2.3%	-13.2
Cc1cc(C)cc(NC(=O)Nc2cnccn2)c1	/	-0.4	/	/	-4.2
CCc1ccc(N2CC(C(=O)N/N=C/c3cccc([N+](=O)[O-])c3)CC2=O)cc1 (stereo unspecified)	6.5	/	-26.6	-4.0%	17.7
COC(=O)c1sc2ncccc2c1OCc1ccc(Cl)cc1	5.2	-0.4	-22.3	-2.2%	12.3
S=c1[nH]nc(-c2ccccn2)n1/N=C/c1cccc2ccccc12	1.1	0.5	-11.3	4.5%	-0.9
COc1ccc(NC(=O)c2cc([N+](=O)[O-])ccc2NC(=O)CNC2CCCCC2C)c(OC)c1 (stereo unspecified)	/	0.5	/	/	4.0
COC(=O)c1ccc(-c2nc3ccc(C)cc3o2)cc1	-26.2	/	-29.3	-7.7%	-13.4
COc1ccccc1C(=O)NCCC(=O)N(C)CC(=O)Nc1ccc(Cl)cc1	/	-2.1	/	/	-0.1
O=C(CCSc1ccc(Cl)cc1)c1ccco1	/	-1.9	/	/	100.0
CCOC(=O)C1CCCN(C(=O)c2cnn3c(C(F)(F)F)cc(-c4ccccc4)nc23)C1 (stereo unspecified)	1.2	0.7	-19.3	-8.9%	7.3
C=CCn1c(SCc2ccc(C#N)cc2)nnc1-c1ccc(C)cc1	-5.6	3.2	-13.4	7.3%	-4.6
O=S(=O)(c1cnc[nH]1)N1CCCCCC1	4.2	-0.7	-14.4	2.7%	-4.2
C=CCNC(=S)NNC(=O)CCC(O)CCCCC (stereo unspecified)	2.4	-0.5	-5.8	-12.0%	-1.8
Cc1nnsc1-c1onc(C)c1C(=O)Nc1cc(Cl)cc(Cl)c1	/	7.2	/	52.4%	-7.0
Cc1[nH]c(=S)c(C#N)c(C)c1C(=O)Nc1ccccc1	5.4	0.4	7.7	0.9%	-1.5
O=S(=O)(NCC1CCCO1)c1ccc(Cl)c(C(F)(F)F)c1 (stereo unspecified)	0.8	0.4	-6.5	-4.6%	14.9
CC(C)NC(=O)CCCC(=O)NC(C)C	1.8	0.9	-22.2	1.0%	-5.2
COc1ccccc1/C=C/C(=O)OCC(=O)c1c(N)n(C)c(=O)n(C)c1=O	-9.0	2.2	-51.1	-1.2%	-2.1
C=CCn1c(N)c(C(=O)NC2CCCCC2)sc1=S	6.8	2.2	-14.8	3.8%	5.2
COc1ccc(-n2c(=S)[nH]c3cc(C(=O)NC4CCCCC4)ccc3c2=O)c(OC)c1	-11.2	0.3	/	27.5%	-7.0
C/C(=N\Nc1nc2ccccc2[nH]1)c1ccccn1	/	10.1	/	/	84.7
Cn1c(C(=O)N2CCN(c3ccccc3)CC2)cc2cc(Cl)ccc21	/	0.2	/	/	4.3
O=C(NCC1CCCCC1)c1ccco1	-6.8	0.3	-34.3	4.7%	12.7
CN(C)CCCN(C(=O)CCSc1ccccc1)c1nc2cc3c(cc2s1)OCO3	-6.2	1.8	/	4.5%	-9.6
C=CCNC(=O)CCCOc1ccc(C)cc1	4.9	-3.1	-17.7	5.3%	-9.7
COc1ccc(CNC(=O)c2cc(=O)c3cc(C)ccc3o2)cc1	/	-1.4	/	/	-6.8
CSc1ncccc1C(=O)NCCc1ccccc1	-0.9	0.4	/	0.4%	-4.0
Cc1c(Cl)cccc1-n1c(SCC(=O)N(C)Cc2ccccc2)nnc1-c1ccncc1	-7.6	7.9	-3.1	2.4%	-18.6
COCCN(CCOC)c1nc(-c2ccccc2)nc2ccccc12	/	0.8	/	/	8.7
O=C(O)CSc1c[nH]c2ccccc12	2.5	-1.8	-4.0	-11.4%	-2.5

Compounds from the list above with a COOH group (four):
SMILES	Arbovirus anti	RecA splice inh	YopH PTP inh	Mtb H37Rv	Mtb betalactam	others
CC(=O)Nc1ccc(NC(=O)C2CCCCC2C(=O)O)cc1 (stereo unspecified)	4.3	0.3	-32.3	-4.6%	-2.4
Cc1cccc(OCC(=O)Nc2cc(NC(=O)COc3cccc(C)c3)cc(C(=O)O)c2)c1	/	-5.9	/	/	11.3
NC(=O)[C@@H]1CCCCNc2c(F)cc([N+](=O)[O-])cc2C(=O)N[C@@H](CC(=O)O)C(=O)N[C@@H](CCC(=O)O)C(=O)N1	-4.2	1.1	-25.3	-0.2%	1.5
O=C(O)CSc1c[nH]c2ccccc12	2.5	-1.8	-4.0	-11.4%	-2.5

The listing continues:
SMILES	Arbovirus anti	RecA splice inh	YopH PTP inh	Mtb H37Rv	Mtb betalactam	others
Cc1ccc(CNC(=O)CNC(=O)c2ccc(Br)o2)cc1	/	-0.1	/	/	2.0
CC1=CC=CN2C1=NC(=O)CC2(C)C(=O)N(CC(=O)NC1CCCC1)c1ccccc1C (stereo unspecified)	8.1	-3.4	/	3.6%	5.9
COc1ccc(S(=O)(=O)N2CCOCC2)cc1NC(=O)CCc1c[nH]c2ccccc12	-2.0	2.2	/	7.5%	-1.8
Cc1cc2c(cc1S(=O)(=O)NCCc1ccccc1)NC(=O)CO2	/	1.1	/	/	-12.1
COC(=O)CSC1=NS(=O)(=O)c2ccccc21	-3.1	-3.2	49.8	4.4%	-12.5	Arbovirus anti repeat=0.4
CC1(C)Cc2sc3c(=O)[nH]c(=S)[nH]c3c2CO1	/	0.9	/	-8.5%	-2.0
CC(C)Sc1nnc2n(CCc3ccccc3)c(=O)c3c4c(sc3n12)COC(C)(C)C4	/	-1.4	-4.2	13.1%	49.5
Cc1nnc2sc(-c3ccncc3)nn12	-0.4	-6.0	-29.3	-3.7%	-5.1
Cc1csc(SCC(=O)Nc2nnc(C)s2)n1	/	6.0	/	/	-4.9
O=C(CN1CCN(c2cccc(Cl)c2)CC1)NCc1ccccc1	/	2.4	/	/	-8.9
Cc1ccc(-c2cc(C(=O)NCCN3CCOCC3)c3ccccc3n2)o1	/	-60.7	/	/	-9.0
CC(C)(C)N(NC(=O)Nc1ccccc1)C(=O)c1ccccc1	1.1	0.6	-27.5	-5.4%	4.0
Cc1ccc2c(c1)N(CCCC(=O)NCCC1=CCCCC1)C(=O)CO2	-2.2	3.1	-23.0	8.2%	-7.2
Cc1ccc(CNC(=O)CSc2nc3ccsc3c(=O)n2Cc2ccccn2)cc1	1.4	-1.6	/	1.8%	9.0
